Assay outcomes deposited in PubChem by National Center for Advancing Translational Sciences (NCATS).
Sfp PPTase inh = Sfp phosphopantetheinyl transferase inhibition | Q9F4F7 | Biochemical Sfp PPTase activity, qHTS | Potency, µM, for inactives: max response, negative = inhibition, actives largely listed as inhibitors | 310,000 compounds, 3.5% hits | AID 1490; active means well fitted inhibition curve with a large enough effect; inconclusive means small, poorly fitted or top-dose-only effect, or another doubt; inactive means no such curve, though single readings can be large or run the other way;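 further: the enzyme is Sfp with the accession as filed and its product quenches rhodamine fluorescence; potency means the concentration at half of the fitted maximal effect; 0% = enzyme reaction without inhibitor and -100% = no enzyme wells; top concentration of the series not given in the record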
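Buffer: 50 mM Hepes-Na pH 7.6, 10 mM MgCl2, 0.01% Nonidet P-40, 0.01% BSA. Enzyme 15 nM, pre-exposed to compound 15 min; substrates then added and fluorescence change tracked over 30 min.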
ClpP mod = qHTS Assay for Activators of ClpP; purified B. subtilis ClpP, FRET peptide cleavage, 20 min; Potency, µM (doses to about 57.5 µM), inactives show at the top dose activity change, negative = active; 340,000 compounds, 1.9% hits; active = well fitted falling curve with a large enough effect; inconclusive = small, poorly fitted or top-dose-only effect; inactive = no such curve, though single readings can be large or run the other way; further: potency means the concentration at half of the fitted maximal effect; the source files actives as falling curves though it sought activators and does not explain the sign; nearly all actives have a fitted effect of over 65% in size; many hits overshoot -100%
Target sequence (P80244 whole entry, looked up): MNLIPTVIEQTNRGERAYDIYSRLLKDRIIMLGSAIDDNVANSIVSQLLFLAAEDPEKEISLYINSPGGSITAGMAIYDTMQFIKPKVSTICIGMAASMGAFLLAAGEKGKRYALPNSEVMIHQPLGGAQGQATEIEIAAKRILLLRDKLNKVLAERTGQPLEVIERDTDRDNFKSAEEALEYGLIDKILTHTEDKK
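Purified B. subtilis ClpP, 10 microg/mL final in Tris/HCl pH8 with KCl, BSA, glycerol and Tween-20, cleaved an Abz/nitrotyrosine-quenched decapeptide. Fluorescence (ex 320, em 430) was read at 0 and 20 min at room temperature. Delta was normalized to 5.8 microM ADEP and DMSO/no-enzyme controls.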
Menin-MLL FL inh = displaces fluorescein MLL peptide from human menin; Fluorescence polarization, fluorescein-MLL peptide displacement from menin; FP activity change, % at 61.4 µM; 290,000 tested, under 10 active; AID 1766; inconclusive = falling polarisation curve, or a change in total fluorescence; inactive = total fluorescence flat and polarisation flat or rising; no compound was filed as active; the % refers to the polarisation; negative = inhibition;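 further: % of control where 0% means no effect; inhibitors lower the polarisation; unlabelled MLL peptide was the positive control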
TRPV1 potentiator = human TRPV1 potentiation | AID 540277 | TRPV1-expressing cells, Fluo-8 calcium influx, capsaicin EC20 potentiation; host cell line not named in the record; control for the full effect not named in the record | potentiation, % at 8.33 µM | 320,000 compounds, 0.02% hits; active means potentiation above 80%; inconclusive means 30% to 80%; inactive means below 30%; further: 0% is about no effect
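Fluo-8 calcium influx in TRPV1-expressing cells, kinetic read (ex 480/em 520 nm). Compound added and read 3 min for agonist activity, followed by capsaicin at EC20 final and 2 min further read for enhancement.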
D2 potentiator = potentiates the human D2 dopamine receptor allosterically | DiscoveRx D2 beta-arrestin cells, luminescence, 90 min; 100% = 57 uM dopamine signal | 360,000 compounds, 0.23% hits | P14416 | potentiation, % (no concentration beside the values); active = potentiation of 50% or more; inconclusive = 30% to 50%; inactive = 30% or less;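 further: compound concentration not given in the record; tested on top of an EC20 dose of dopamine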
Target sequence (P14416 whole entry, looked up): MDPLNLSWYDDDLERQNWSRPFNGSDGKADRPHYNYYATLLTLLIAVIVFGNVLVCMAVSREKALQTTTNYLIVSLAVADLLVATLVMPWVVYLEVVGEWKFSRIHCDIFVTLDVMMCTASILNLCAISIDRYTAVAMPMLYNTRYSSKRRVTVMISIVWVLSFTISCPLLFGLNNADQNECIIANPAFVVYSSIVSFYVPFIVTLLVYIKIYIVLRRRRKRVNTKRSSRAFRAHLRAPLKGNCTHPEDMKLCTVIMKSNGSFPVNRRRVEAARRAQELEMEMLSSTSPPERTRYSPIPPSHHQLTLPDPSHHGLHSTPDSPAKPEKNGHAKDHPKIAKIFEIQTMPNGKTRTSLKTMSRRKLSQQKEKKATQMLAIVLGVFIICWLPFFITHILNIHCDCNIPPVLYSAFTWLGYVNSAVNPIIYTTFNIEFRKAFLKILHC
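PathHunter beta-arrestin assay in DiscoveRx D2 cells. Compounds were added with an EC20 of dopamine (50 nM final) for 90 min at 37 deg C. Luminescence was read 1 h after detection reagent, with 57 uM dopamine as the EC100 control.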
gsp agonist = activates gsp, the McCune-Albright syndrome mutation; AID 624287; 340,000 compounds, 0.13% hits; gsp mutant cells, cAMP HTRF, 30 min; control for the full effect not named in the record; Potency, µM (doses to about 76.9 µM), without a hit: at the top dose activation (cAMP increase), most hits filed as activators; active = well fitted activation curve with a large enough effect; inconclusive = small, poorly fitted or top-dose-only effect, or another doubt; inactive = no such curve, though single readings can be large or run the other way; cell line not stated here;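 further: phosphodiesterase inhibitor Ro 20-1724 added with compounds to block cAMP breakdown; potency means the concentration at half of the fitted maximal effect; nearly all actives have a fitted effect of over 60% in size; about a fifth of the inactives were tested at one dose only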
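Cells stably selected in G418 were plated at 2000/well, grown 16-24 hr, then given compounds in DMSO with the PDE inhibitor […] (300 uM solution added) for 30 min at 37C; cAMP was read by HTRF.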
gsp antag = gsp mutant antagonism. gsp-mutant cells, cAMP HTRF, 30 min; control for the full effect not named in the record. Potency, µM (titrated, usually from 76.9 µM), for the others: at the highest dose activity change, negative = inhibition, hits mostly inhibitors. 340,000 compounds, 0.4% hits. AID 624288; active = falling curve of any shape with a large fitted effect; inconclusive = falling curve, mostly with a smaller effect; inactive = flat or rising curve; cell line not stated here;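 further: intracellular cAMP measured with PDE inhibitor Ro 20-1724 present during compound exposure; potency means the concentration at half of the fitted maximal effect; on the % scale 0 is the no-effect control and ±100 the full control effect; nearly all actives have a fitted effect of over 65% in size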
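HTRF cAMP read-out (cAMP-d2 plus anti-cAMP antibody-K in lysis buffer, 30 min RT). Before lysis, cells are exposed to compounds with […] for 30 min at 37C in DPBS containing Ca/Mg, BSA and Tween 20.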
Active calls of the source: *; ? = inconclusive; . = not tested or not shown; & = joins results of further samples; [ ] = another dose, or the depositor's remark.

SMILES	Sfp PPTase inh	ClpP mod	Menin-MLL FL inh	TRPV1 potentiator	D2 potentiator	gsp agonist	gsp antag
Cc1ccc(C(=O)CC2(O)C(=O)N(Cc3ccccc3Cl)c3ccccc32)o1 (stereo unspecified)	-7%	0.4%	-0.8	-1	12	-57%[inhibitor]	-21%
CCOC(=O)N1CCN(CC(=O)Nc2ccc(F)cc2F)CC1	8%	2.1%	1.6	6	-6	7%	15%
CCN(CC)CCOC(=O)C1(c2ccc(OC)c(OC)c2)CCCC1	79µM*	0.3%	-1.0	27	-11	?	15%
CC1(C)CC(=O)C=C(c2cccc3c2Oc2ccccc2S3)C1	.	-2.5%	.	-12	-1	-33%[inhibitor]	?
CCOC(=O)c1sc(=NC(=O)c2ccc(S(=O)(=O)N3CC(C)OC(C)C3)cc2)n(C)c1C (stereo unspecified)	13%	-111%	1.9	-4	-8	4%	18%
O=C(N/N=C/C(Br)=C/c1ccccc1)c1ccccc1[N+](=O)[O-]	11%	-0.2%	2.1	3	-3	-6%	-7%
CCCCc1ccc(NC(=O)C(=O)NCCN2CCN(C(=O)c3ccc([N+](=O)[O-])cc3)CC2)cc1	13%	.	-6.9	4	-7	17%	1%
OCCNCc1cccc(OCc2ccc(Cl)cc2)c1	14%	.	-2.6	2	-1	21%	8%
Cc1ccc2cc(C#N)c(N3CCCN(C(=O)C4CCCO4)CC3)nc2c1C (stereo unspecified)	-11%	?	-0.9	-6	28	22%	?
COc1ccc2c(c1)O[C@H](c1ccc3c(c1)OCO3)[C@@H](OC(=O)N[C@H]1CCCc3ccccc31)C2=O	2%&-5%	-5.0%	1.5&0.4	1	-9	4%	-6%
O=C(NN=Cc1ccc2c(c1)CCC2)c1ccccc1[N+](=O)[O-]	.	-1.1%	.	.	-12	?	.
Brc1ccc(CN2C3=NCCCN3c3ccccc32)cc1	-1%	-0.7%	12	0	-4	-2%	14%
Cc1ccc(CNC(=O)c2nccnc2C(=O)O)cc1	-2%	.	-0.4	0	-1	?	8%
O=Cc1ccc(C(=O)OCC(=O)NC(=O)Nc2ccccc2F)cc1	.	.	.	.	-4	-12%	6%
Cc1ccc(NC2CC(=O)N(CCc3ccccc3)C2=O)cc1 (stereo unspecified)	-7%	0.7%	-0.8	-8	-9	0%	10%
CNC(=O)CN(Cc1ccccc1)S(=O)(=O)c1ccccc1	2%	-0.2%	-2.7	14	18	-31%[inhibitor]	5%
Cc1nc2cc(C(=O)OCC(=O)Nc3ccc(C#N)cc3)ccc2n1-c1ccccc1	15%	-11%	12	1	-17	2%	7%
CC(CCc1ccccc1)NC(=O)c1ccccc1C(=O)O (stereo unspecified)	8%	.	-1.0	-9	-7	15%[15.4 µM]	-7%
CNC(=O)CC1C(=O)N(c2ccc(F)cc2)C(=S)N1NC(=O)c1ccc(Cl)cc1 (stereo unspecified)	17%	.	2.0	10	-4	11%	-8%
COc1cc(/C=N/n2cnnc2)ccc1OCc1ccccc1	-7%	-16%	2.0	?	21	-37%[inhibitor]	-2%
CC1CC2(CCCC2)N(C(=O)N(C)C)c2ccc(F)cc21 (stereo unspecified)	7%	0.1%	0.8	14	-3	2%	0%
COc1ccc(C(=O)N2CCC(NC(=O)C(Cc3ccccc3OC)NC(C)=O)CC2)cc1 (stereo unspecified)	25%	-0.8%	-0.3	13	-10	12%[15.4 µM]	9%
CC(C)NC(=O)C(=O)NCCC1CCCCN1S(=O)(=O)c1cccs1 (stereo unspecified)	.	-0.8%	.	-2	-4	-2%[15.4 µM]	6%
C#CCNC(=O)C1=C[C@@H](c2ccc(C#C)cc2)C[C@@H](OCc2ccc(CO)cc2)O1	.	-5.4%	.	.	2	-65%[inhibitor]	-12%
COc1ccc(/C=N\Nc2ccccc2[N+](=O)[O-])c(C(=O)O)c1OC	12%	-0.2%	0.0	.	-13	-40%[inhibitor]	-12%
COC(=O)C1=C(C)NC(=O)NC1c1ccc(-c2ccccc2Cl)o1 (stereo unspecified)	-20%	.	4.9	0	-3	11%[15.4 µM]	-4%
CCOc1ccccc1NC(=S)/C(=C(\[O-])c1ccc2c(c1)OCCO2)[n+]1ccc(CC)cc1	?	-11%	8.8	5	-23	17%	-6%
COc1cc(C(F)(F)F)c(C(=O)N(C)c2ccc(Cl)cc2)cn1	10%	.	?	6	4	-25%	-15%
COc1cccc(C(c2c(N)[nH]c(=S)[nH]c2=O)c2c(N)[nH]c(=S)[nH]c2=O)c1	79µM*	.	-2.1	2	-16	-6%[15.4 µM]	12%
CCCCSc1nc2c(c(C(F)(F)F)c1C#N)CCC2	3%	?	0.2	-5	3	4%	?
COc1ccc2sc(-c3ccc(SC)cc3)c(C#CC(C)(C)O)c2c1	.	4.4%	.	4	-10	.	-17%
Nn1c(SCc2cn3ccsc3n2)nnc1-c1ccncc1	-17%	0.1%	2.1	0	3	3%	10%
CCc1ccccc1NC1=CC(=O)CC(C)(C)C1	12%	.	0.3	-28	0	16%[15.4 µM]	4%
O=C(Cc1cccs1)Nc1nnc(SCc2ccc(Br)cc2)s1	12%	1.8%	3.0	3	-4	-11%	13%
C=CCN(C(=O)c1cc(C)cc(C)c1)C1(C(=O)Nc2ccccc2)CCN(C(C)C)CC1	6%	-2.0%	1.3	1	-8	11%[15.4 µM]	11%
c1coc(-c2nnc(SCc3nc4ccccc4[nH]3)o2)c1	5%	-2.3%	8.3	-10	-6	-5%	7%
CCN(CC)CCNC(=O)/C(=N\O)c1ccccn1	-28%	1.3%	-1.2	5	-8	-23%	4%
COc1cc(/C=C(\C#N)c2ccccn2)ccc1OCc1ccccc1	?	-10%	9.0	7	-7	4%[15.4 µM]	-7%
CC(=O)Nc1cccc(C(=O)/C=C/c2ccco2)c1	14µM*	-1.4%	14	4	5	-9%	-13%
O=C(CC(C(=O)O)c1cccc(Br)c1)c1ccc(Cl)cc1 (stereo unspecified)	6%	-2.9%	3.1	7	-8	2%	-8%
O=C(COc1ccc(Cl)cc1)Nc1ccccc1Cl	7%	-8.8%	-8.9	-2	-5	-5%[15.4 µM]	-1%
NS(=O)(=O)c1ccc(NC(=O)COC(=O)c2ccc(Cl)nc2)cc1	14%	-2.0%	-2.3	-32	-5	-49%[inhibitor]	10%
Cc1ccc(OC(=O)c2ccccc2)cc1C	.	28µM*	.	.	-1	7%[15.4 µM]	6%
COc1ccc(C2=NN(C(=O)/C=C/c3ccccc3)C(c3ccccc3)C2)c(OC(C)=O)c1 (stereo unspecified)	6%	-9.3%	-1.5	-10	-15	14%	-26%
Cc1ccc(-c2nnn(CC(=O)N(CC(=O)NC3CCCC3)c3ccc(F)cc3)n2)o1	23%	.	-0.3	5	8	-20%[15.4 µM]	-6%
C=CCNC(=S)NNC(=O)c1cccc(Br)c1	9%	3.2%	-4.0	-2	-30	-20%	8%
O=C(CSc1nc(-c2cccs2)cc(C(F)(F)F)n1)NCCCn1ccnc1	-5%	-13%	2.7	-1	2	2%	-3%
Cc1c(C)n(CC(O)CN2C(=O)c3ccccc3S2(=O)=O)c2ccccc12 (stereo unspecified)	11%	1.6%	6.6	2	3	-24%	-4%

Of the compounds above, these have an NH in an aromatic ring.
SMILES	Sfp PPTase inh	ClpP mod	Menin-MLL FL inh	TRPV1 potentiator	D2 potentiator	gsp agonist	gsp antag
COc1cccc(C(c2c(N)[nH]c(=S)[nH]c2=O)c2c(N)[nH]c(=S)[nH]c2=O)c1	79µM*	.	-2.1	2	-16	-6%[15.4 µM]	12%
c1coc(-c2nnc(SCc3nc4ccccc4[nH]3)o2)c1	5%	-2.3%	8.3	-10	-6	-5%	7%

New compounds follow
SMILES	Sfp PPTase inh	ClpP mod	Menin-MLL FL inh	TRPV1 potentiator	D2 potentiator	gsp agonist	gsp antag
Cc1ccc(/C=N/n2c(-c3ccco3)n[nH]c2=S)cc1	-17%	-9.9%	0.3	-3	-17	2%[15.4 µM]	-9%
CCOC(=O)Cn1c(C)nc2ccccc21	14%	-1.3%	4.4	-1	-13	-20%	-2%[15.4 µM]
COC(=O)c1ccccc1S(=O)(=O)N1CCC(C(=O)NCc2ccccn2)CC1	.	-1.4%	.	.	-7	-28%	.
CCc1ccc(C(C(=O)NCc2ccccc2)N(C(=O)c2csnn2)C2CC2)cc1 (stereo unspecified)	13%	.	5.0	-15	-13	-13%	4%
S=C(Nc1ccc(Cl)cc1)NC1CCN(Cc2ccccc2)CC1	-4%	-13%	-1.3	-7	-31	-2%	4%
O=C(CN1CCN(c2ccc(O)cc2)CC1)Nc1ccc(-c2ccccc2)cc1	45µM*	.	1.4	-2	-3	1%	-13%
Cc1ccccc1S(=O)(=O)Cc1ccc(C(=O)NCc2ccco2)o1	14%	-0.3%	-4.1	0	9	?	-7%
Cc1cc(NC(=O)CSc2nnc(-c3ccc(S(=O)(=O)N4CCCC4)cc3)n2C)no1	5%	-13%	2.4	4	-1	-6%	-12%
COc1cccc(-c2nc3sc4c(c3c(=O)[nH]2)CCCCC4)c1	13%	17%	5.1	9	-2	-4%	8%
C=CCn1nnnc1SCC(=O)Nc1ccc(OC)cc1	5%	1.3%	.	0	3	-40%	-3%
CC(Sc1nc2ncc(Cl)cc2[nH]1)C(=O)Nc1ccccc1[N+](=O)[O-] (stereo unspecified)	.	-1.9%	.	.	-19	-40%[inhibitor]	.
CCN1CCN(C(c2ccc(OC)cc2)C(O)C(=O)c2c[nH]c3ccccc23)CC1 (stereo unspecified)	15%	-2.5%	2.2	2	-10	?	13%
Cc1cc(N2CCCCC2)nc(SCc2ccc(C#N)cc2)n1	?	-2.8%	0.8	-15	-2	-26%	-3%
COc1ccc(C(=O)NCc2nnc(SCC(=O)Nc3cccc(OC)c3)o2)cc1	11%	-2.6%	-6.4	?	-3	?	6%
O=C(O)/C=C/c1ccccc1Oc1ccccc1	21%	-14%	6.3	5	-16	-43%[inhibitor]	-11%
CCOC(=O)Nc1sc2c(c1C#N)CCCC2	1%	-5.1%	-1.2	-2	-2	23%	-4%
O=C(NCCCn1ccnc1)c1ccc(-c2ccccc2)cc1	12%	-1.3%	-1.5	-6	-31	-21%	0%
